From PubChem BioAssay
ALR inh = blocks human ALR sulfhydryl oxidase activity. purified ALR, DTT oxidation, H2O2 HRP-luminol luminescence. AID 485317. 290,000 tested, 3.8% active. inhibition, % (concentration not given with the values);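 active = mean and each replicate at 75% or more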;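 note: stock transfer was 7.5 nL into about 7.5 µL; 0% = neutral wells and 100% = wells with inactivated enzyme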
Target sequence (P55789 whole entry, looked up): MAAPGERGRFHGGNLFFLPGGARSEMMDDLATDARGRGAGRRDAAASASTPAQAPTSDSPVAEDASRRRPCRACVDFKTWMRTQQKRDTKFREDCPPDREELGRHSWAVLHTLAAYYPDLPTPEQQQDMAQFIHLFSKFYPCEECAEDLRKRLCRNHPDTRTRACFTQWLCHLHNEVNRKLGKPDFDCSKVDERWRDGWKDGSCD
LANA-H2B inh = blocks KSHV LANA binding to histone H2A/H2B | Q9QR71 | cell-free LANA-H2A/H2B peptide, fluorescence polarization | inhibition, % (test concentration not listed) | 320,000 tested, 0.6% active; in the data active = inhibition mostly above about 10%, no sharp cut-off; inactive = mostly below about 6.7%;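 note: stock transfer was 7.5 nL into about 10 µL; 0% = median of vehicle wells and 100% = median of positive control wells; one replicate is shown; the record names a cut of 25% in any replicate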
B2AR ag = human beta-2 adrenergic receptor agonism by FAP. response, % (concentration not given with the values). 340,000 tested, 0.43% active. AID 504454. Am2.2-beta2AR cells, FAP receptor internalization, flow cytometry; reference of the scale not given here;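 active = response above a set limit, near 3 SD of response in nonfluorescent compounds, cut at about 42% in these data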;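 note: stock transfer was 100 nL into about 11 µL; a reference agonist was the positive control; negative values mostly stem from fluorescent compounds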
Target sequence (P07550 whole entry, looked up): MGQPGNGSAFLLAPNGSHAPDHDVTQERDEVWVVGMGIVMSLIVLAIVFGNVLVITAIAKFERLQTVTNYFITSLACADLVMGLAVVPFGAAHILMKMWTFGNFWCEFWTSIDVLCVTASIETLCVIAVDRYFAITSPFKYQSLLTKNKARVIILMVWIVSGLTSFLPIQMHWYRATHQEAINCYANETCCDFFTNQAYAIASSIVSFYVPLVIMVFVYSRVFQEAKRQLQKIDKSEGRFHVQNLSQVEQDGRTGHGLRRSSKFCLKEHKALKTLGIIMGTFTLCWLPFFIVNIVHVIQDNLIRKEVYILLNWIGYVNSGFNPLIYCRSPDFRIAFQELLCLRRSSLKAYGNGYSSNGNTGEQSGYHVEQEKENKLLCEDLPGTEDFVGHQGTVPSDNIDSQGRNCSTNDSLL
FGF22 binding = binders of recombinant human FGF22 by thermal shift. Q9HCT0. calls only at 9.99 µM. SYPRO orange fluorescence; percent of sucrose octasulfate shift, DMSO zero. 340,000 tested, 1.5% active;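 active = melting point raised past a set limit in the mean and every replicate; three in four hits are not shown here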
Target sequence (Q9HCT0 whole entry, looked up): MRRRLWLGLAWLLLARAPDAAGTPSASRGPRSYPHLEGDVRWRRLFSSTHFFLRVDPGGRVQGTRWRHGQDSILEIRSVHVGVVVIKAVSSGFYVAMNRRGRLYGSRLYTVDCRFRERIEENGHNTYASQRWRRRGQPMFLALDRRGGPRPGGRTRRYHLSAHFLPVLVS
UCH37 DUB inh = inhibitors of human deubiquitinating enzyme UCH37; purified proteasome/UCH37, Ub-AMC cleavage fluorescence; 330,000 tested, 0.33% active; Q9Y5K5; AID 588478; inhibition, % (test concentration not listed);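 active = mean of two replicates above 20%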;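 note: 0% = compound-free wells with enzyme and 100% = wells lacking proteasome; stock transfer was 100 nL into about 20 µL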
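Reagent: Ub-AMC substrate; assay system: Proteasome-associated human UCH37 deubiquitinase; controls: no-proteasome and no-compound wells; read-out: % inhibition of Ub-AMC cleavage fluorescence; timing: 30 min preincubation with enzyme, 25 min cleavage at room temperature; signal: AMC fluorescence from Ub-AMC cleavage, excitation 355 nm, emission 460 nm; buffer or medium: Tris-HCl pH 7.4 plus ovalbumin, ATP-MgCl2, DTT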
Ecoli growth = inhibitors of Escherichia coli growth. 330,000 tested, 0.21% active. OD600, 23 h; stronger effect = lower value. OD600 absorbance (no concentration beside the values);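 active = OD600 absorbance below the run mean of sample wells minus 3.6 SD, in any replicate, cut at about 0.56 in these data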;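 note: stock transfer was 300 nL into about 60 µL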
HNF4A DNA FP = change in binding of human HNF4 alpha to DNA; P41235; HNF4a-FITC DNA binding, fluorescence polarization, 1 h; activity change, % at 10 µM; 360,000 tested, 0.3% active; AID 1224865; in the data active = activity change above about 30%, passing the limit was not always enough;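 note: controls were the assay level and a saturating level of protein; the project sought stronger binding though the title names inhibitors; some compounds called inactive have numbers as strong as hits; positive values seem to mean higher polarization but the record does not say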
* marks the source's active call; other numbers are inactive results; i = inactive; / = no result given. Not all compounds are listed (hit frequency here may not be typical).

A first look (four entries):
1. NC(N)=N/N=C/c1ccc2cccc(OCc3ccccc3)c2n1
2. CC(=O)N1CCc2cc(S(=O)(=O)NCCC(=O)N3CCN(Cc4ccccc4)CC3)ccc21
3. Cc1ccc(SCC(=O)Nc2ccc(C(=O)Nc3ccc(O)cc3)cc2)cc1
4. O=C(CSc1nnc(CNC(=O)c2cccs2)o1)Nc1cccc(F)c1

screen / no.,1,2,3,4
ALR inh,-11,2,-9,99*
LANA-H2B inh,-1.1,3.9,-3.5,3.2
B2AR ag,-3,-8,-2,-25
FGF22 binding,i,/,i,i
UCH37 DUB inh,/,0.7,0.8,1.1
Ecoli growth,/,0.63,0.75,0.69
HNF4A DNA FP,2.1,-1.1,-3.0,1.2

Main list, previewed entries included:
1. NC(N)=N/N=C/c1ccc2cccc(OCc3ccccc3)c2n1
2. CC(=O)N1CCc2cc(S(=O)(=O)NCCC(=O)N3CCN(Cc4ccccc4)CC3)ccc21
3. Cc1ccc(SCC(=O)Nc2ccc(C(=O)Nc3ccc(O)cc3)cc2)cc1
4. O=C(CSc1nnc(CNC(=O)c2cccs2)o1)Nc1cccc(F)c1
5. O=C(NC(=S)Nc1ccccc1N1CCCC1)c1ccc(-c2cccc([N+](=O)[O-])c2)o1
6. O=C(Nc1ccc(-c2cc3ccccc3oc2=O)c(Cl)c1)c1cccnc1
7. COc1ccc(/C=N/NC(=O)c2cc(=O)[nH]c3ccccc23)cc1OC
8. Cc1ccc(Sc2cc(NCCCO)c([N+](=O)[O-])c3nonc23)cc1

screen / no.,1,2,3,4,5,6,7,8
ALR inh,-11,2,-9,99*,-5,20,-10,-16
LANA-H2B inh,-1.1,3.9,-3.5,3.2,2.9,-0.5,-2.6,-0.6
B2AR ag,-3,-8,-2,-25,2,0,2,19
FGF22 binding,i,/,i,i,/,i,i,i
UCH37 DUB inh,/,0.7,0.8,1.1,7.4,-3.7,/,9.9
Ecoli growth,/,0.63,0.75,0.69,0.72,0.69,/,0.72
HNF4A DNA FP,2.1,-1.1,-3.0,1.2,-0.4,6.1,-4.1,1.5

9. COc1ccccc1CN1CC(C(=O)NCCn2nc(C)cc2C)CCC1=O (centres undefined)
10. O=C(O)COc1ccc(NC(=O)c2ccc3c(c2)C(=O)N(Cc2ccccc2)C3=O)cc1
11. CC(/C=C/c1ccccc1)=N/NC(=O)CCC(=O)Nc1ccccc1C
12. O=C(CNC1CCCCC1)Nc1ccc([N+](=O)[O-])cc1C(=O)Nc1ccccc1F
13. Cc1nn(CC2CC2)c(=O)n1-c1cccc(Cl)c1
14. COc1ccc(N2CSC3=C(C#N)C(c4cccs4)CC(=O)N3C2)cc1 (centres undefined)
15. COc1ccc(N2CCN(C(=O)COc3ccc4c(C)cc(=O)oc4c3C)CC2)cc1
16. COc1ccc2[nH]c(=O)c(CN(C)C(=O)c3cccs3)cc2c1

screen / no.,9,10,11,12,13,14,15,16
ALR inh,-20,3,-11,-6,-6,11,7,-19
LANA-H2B inh,-14,-0.3,-2.3,1.2,-6.2,1.2,-0.3,-3.0
B2AR ag,2,-7,-7,-10,-2,1,11,-11
FGF22 binding,i,i,/,i,i,/,i,i
UCH37 DUB inh,1.3,9.1,/,-0.5,4.9,2.3,2.2,-45
Ecoli growth,0.74,0.7,/,0.71,0.7,0.7,0.64,0.63
HNF4A DNA FP,0.9,0.8,1.8,-0.6,-4.9,1.4,5.2,0.4

17. Cc1nc(-c2ccccc2)sc1C1(C)CC(c2cccc(F)c2)=NO1 (centres undefined)
18. O=C(CSc1nc2ccccc2[nH]1)Nc1ccc2c(c1)OCCO2
19. Cc1cc(NC(=O)CN2C(=O)NC(Cc3ccccc3)C2=O)no1 (centres undefined)
20. COc1ccc(C2C3=C(CC(C)(C)CC3=O)N(C)C3=C2C(=O)CC(C)(C)C3)cc1OC
21. O=C(CN1C(=O)CSc2ncccc21)N1CCOCC1
22. O=C(CN1CCN(Cc2ccc3c(c2)OCO3)CC1)NCC(F)(F)F
23. CCc1ccc(CCC(=O)Nc2sc3c(c2C#N)CCCC3)o1
24. CCC(=O)Nc1nc2ccccc2n1Cc1ccccc1

screen / no.,17,18,19,20,21,22,23,24
ALR inh,-1,99*,-9,-10,-37,-2,0,8
LANA-H2B inh,-1.5,-2.4,-1.3,3.2,2.7,-2.9,-4.3,-2.4
B2AR ag,-7,-3,0,0,23,-1,22,-11
FGF22 binding,i,/,/,i,i,i,/,/
UCH37 DUB inh,2.5,-0.4,2.0,-0.4,-2.2,-1.5,-0.7,1.9
Ecoli growth,0.64,0.62,0.68,0.67,0.77,0.7,0.68,0.7
HNF4A DNA FP,-2.0,-0.7,1.7,5.6,-1.9,1.0,1.3,-0.9

25. CC(C)CC(=O)CN1C(=O)C2(OCCO2)c2ccccc21
26. COC(=O)CNC(=O)C1CCCN1C(=O)CNC(=O)OC(C)(C)C (centres undefined)
27. O=C(c1ccc(CS(=O)Cc2ccc(Cl)cc2)o1)N1CCN(c2ccccn2)CC1 (centres undefined)
28. CCCSc1nc2cc(S(=O)(=O)N3CCOCC3)ccc2n1CC
29. COCCOc1ccc(C(F)(F)F)cc1NC(=O)CN1C(=O)NC(C)(c2ccc3c(c2)OCO3)C1=O (centres undefined)
30. COc1cc(NC(=O)COC(=O)c2ccc(S(=O)(=O)N3CC(C)CC(C)C3)cc2)c(C)cc1[N+](=O)[O-] (centres undefined)
31. COC(Cc1nnc(SC)n1-c1ccc(Cl)cc1)OC
32. CCc1ccccc1NC(=O)CN1CCN(CC(=O)Nc2ccc(-c3ccccc3)cc2)CC1

screen / no.,25,26,27,28,29,30,31,32
ALR inh,-3,-4,-3,0,-1,-16,1,-1
LANA-H2B inh,1.0,-9.6,-0.9,-1.5,-4.1,2.3,-0.8,-1.8
B2AR ag,7,8,-18,5,2,-14,-1,13
FGF22 binding,/,/,i,i,i,/,/,i
UCH37 DUB inh,/,-0.2,3.9,6.9,5.6,2.5,-0.2,-0.8
Ecoli growth,/,0.78,0.7,0.69,0.69,0.68,0.72,0.7
HNF4A DNA FP,3.9,-0.4,3.5,1.8,0.3,7.1,0.8,7.0

Entries of single compounds from above. Values in the order: ALR inh, LANA-H2B inh, B2AR ag, FGF22 binding, UCH37 DUB inh, Ecoli growth, HNF4A DNA FP
Shown for CCc1ccccc1NC(=O)CN1CCN(CC(=O)Nc2ccc(-c3ccccc3)cc2)CC1 = -1, -1.8, 13, i, -0.8, 0.7, 7.0
Shown for COc1cc(NC(=O)COC(=O)c2ccc(S(=O)(=O)N3CC(C)CC(C)C3)cc2)c(C)cc1[N+](=O)[O-] (centres undefined) = -16, 2.3, -14, /, 2.5, 0.68, 7.1
Shown for COC(=O)CNC(=O)C1CCCN1C(=O)CNC(=O)OC(C)(C)C (centres undefined) = -4, -9.6, 8, /, -0.2, 0.78, -0.4
Shown for COCCOc1ccc(C(F)(F)F)cc1NC(=O)CN1C(=O)NC(C)(c2ccc3c(c2)OCO3)C1=O (centres undefined) = -1, -4.1, 2, i, 5.6, 0.69, 0.3

More structures
33. NC(N)=Nc1nc2ccc(Br)cc2c(=O)[nH]1
34. CCCOc1ccc(C(=O)Nc2ccc(S(=O)(=O)NC3=NCCCCC3)cc2)cc1
35. CC(C)(C)c1ccc(/C=N/NC(=O)c2ccccn2)cc1
36. COc1ccc(-c2noc(CCC(=O)Nc3ccc4c(c3)OCCO4)n2)cc1
37. COc1ccc(OC)c(NC(=O)c2sc3nc(C)cc(C)c3c2N)c1
38. Cc1cccc(CS(=O)(=O)Cc2ccc(C(=O)NCc3ccco3)o2)c1
39. Cc1ccc(OC(=O)CCS(=O)(=O)c2ccc(C)cc2)cc1
40. CCCn1c(C(C)C)n[nH]c1=S

screen / no.,33,34,35,36,37,38,39,40
ALR inh,2,-6,59,-1,-42,1,1,3
LANA-H2B inh,-1.6,6.8,-6.0,-2.8,-5.0,3.3,-4.3,0.5
B2AR ag,-4,12,28,2,73*,-8,11,2
FGF22 binding,i,i,/,/,i,i,i,i
UCH37 DUB inh,/,0.2,/,1.8,-42,0.0,0.9,2.5
Ecoli growth,/,0.69,/,0.74,0.69,0.62,0.68,0.69
HNF4A DNA FP,-1.2,-1.1,-3.2,1.9,1.8,2.3,2.9,-0.5

41. S=C(NCc1ccccc1)Nc1cccc2ccccc12
42. Cc1nnc(NC2(C(F)(F)F)C(=O)Nc3c2c(=O)n(C)c(=O)n3C)s1 (centres undefined)
43. O=C(COC(=O)CCC(=O)c1cccs1)NC1CCCCC1
44. O=C(/C=C/c1ccco1)c1ccc(O)cc1
45. CC(=O)C1=C(O)C(=O)N(CCCn2ccnc2)C1c1ccc(C)cc1 (centres undefined)
46. CC(=O)Nc1c(C)ccc2nsnc12
47. CCOc1ccc(CC(=O)Nc2ccc(-c3ccc4nnc(C)n4n3)cc2)cc1
48. CCN(Cc1ccccc1)C(=O)COc1cc(=O)n(CC)c2ccccc12

screen / no.,41,42,43,44,45,46,47,48
ALR inh,-24,1,/,14,3,-9,-4,-9
LANA-H2B inh,1.4,1.5,/,-0.7,0.1,-0.7,4.8,1.0
B2AR ag,9,-5,-3,/,2,-2,1,-5
FGF22 binding,i,/,i,/,i,/,i,/
UCH37 DUB inh,-1.4,1.6,3.6,0.9,2.4,-0.5,-13,1.9
Ecoli growth,0.7,0.69,0.64,0.66,0.66,0.74,0.68,0.7
HNF4A DNA FP,8.3,0.5,-5.2,/,-0.8,0.4,2.4,-1.5

49. CCOc1cc(/C=C2/C(=O)ON=C2C)ccc1OCc1ccccc1
50. O=S(=O)(Nc1cccc(S(=O)(=O)N2CCCCCC2)c1)c1ccc(F)cc1F
51. CC(=O)c1cc(-c2ccccc2)n(CC(=O)N2CCN(C3CCCC3)CC2)c1C
52. CC(C)Cc1nnc(NC(=O)CCC(=O)NC2CCCCCC2)s1
53. CCOC(=O)C[C@H]1c2cc(F)ccc2S(=O)(=O)N1c1cccc(OC)c1
54. CCOC(=O)Cn1c(C)nc2c(C(=O)OCC)sc(C)c2c1=O
55. CCOC(=O)c1sc(NC(=S)NC(=O)c2cccc(OC)c2)nc1C
56. CC1CN(C(=S)SCCN2Cc3ccccc3C2=O)CC(C)O1 (centres undefined)

screen / no.,49,50,51,52,53,54,55,56
ALR inh,0,-5,-8,-1,-6,3,-1,-6
LANA-H2B inh,2.4,0.6,-5.7,-5.0,3.8,2.3,-2.3,4.6
B2AR ag,/,-2,6,-6,4,0,2,-14
FGF22 binding,i,i,/,i,i,/,i,i
UCH37 DUB inh,1.1,-0.3,2.8,0.4,0.4,-9.2,4.1,1.6
Ecoli growth,/,0.66,0.79,0.68,/,0.69,0.6,0.73
HNF4A DNA FP,/,6.2,-1.1,-3.0,1.2,-1.4,-0.4,0.1

57. Cc1cc(C)nc(NNC(=O)NC2CCCCC2)n1
58. COc1ccccc1CNC(=O)COC(=O)Cc1ccc(F)cc1
59. O=c1[nH]cnc2c1N1CCC2CC1
60. CC(C)(C)OC(=O)N1CCN(C(=O)Cn2cc(CCO)nn2)CC1
61. CCOc1ccc(NC(=S)N2CCC(NC(=O)c3ccccc3)CC2)cc1
62. CC(=O)c1cccc(OCC(O)CNCCc2ccc(Cl)cc2)c1 (centres undefined)
63. O=C(N/N=C/c1ccc([N+](=O)[O-])o1)c1cn(-c2ccccc2)nc1-c1ccc(F)cc1

screen / no.,57,58,59,60,61,62,63
ALR inh,26,1,-1,-3,3,-25,5
LANA-H2B inh,-2.8,-2.5,1.6,-4.7,2.8,0.1,-0.2
B2AR ag,-9,-5,-4,-7,-1,-5,/
FGF22 binding,/,i,/,i,i,i,i
UCH37 DUB inh,4.5,1.8,4.2,1.9,1.4,6.3,/
Ecoli growth,0.7,0.63,0.76,0.62,0.65,0.67,/
HNF4A DNA FP,-0.9,-0.5,-1.8,0.1,3.3,-0.1,/
